Bioassay records deposited in PubChem BioAssay by National Center for Advancing Translational Sciences (NCATS).
StopGo reporter: High Throughput Screening for Foot and Mouth Disease Virus Antivirals; human cells with a luciferase reporter of 2A StopGo recoding; control for the full effect not named in the record; 1.2% of 410,000 active; AID 1159524, 2015; Potency, µM (doses to about 57.9 µM), inactives show at the highest dose signal change, negative = less light; active = well fitted falling curve with a large enough effect; inconclusive = small, poorly fitted or top-dose-only effect; inactive = no such curve, though single readings can be large or run the other way; tested in HEK293T cells; note: % is set by controls: 0 for no effect and ±100 for the full control effect; nearly all actives have a fitted effect of over 45% in size; luciferase light after 4 h
SARS PLP yeast: qHTS of Yeast-based Assay for SARS-CoV PLP. AID 485353, 2010. Potency, µM (series often up to 32.9 µM), for the others: at the highest dose activity, positive = growth rescue. S. cerevisiae expressing SARS-CoV PLpro, growth rescue; control for the full effect not named in the record. 0.19% of 330,000 active; active means well fitted rising curve with a large enough effect; inconclusive means small, poorly fitted or top-dose-only effect; inactive means no such curve, though single readings can be large or run the other way; note: 0% is about no effect; nearly all actives have a fitted effect of over 55% in size; growth read by luminescence after 48 h
RE007 growth inh: qHTS Assay for Inhibitors of the HIV-1 protein Vpr; S. pombe RE007 Vpr strain, BacTiter-Glo ATP luminescence, 24 h; control for the full effect not named in the record; Potency, µM (highest dose often 92.2 µM), for the others: at the top dose activity change, negative = less growth; 0.21% of 360,000 active; active = well fitted falling curve with a large enough effect; inconclusive = small, poorly fitted or top-dose-only effect; inactive = no such curve, though single readings can be large or run the other way;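 note: % is set by controls: 0 for no effect and ±100 for the full control effect; nearly all actives have a fitted effect of over 50% in size; the assay follows cell death caused by Vpr and the record does not say whether a fall means rescue or toxicity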
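Fission yeast strain RE007, carrying one chromosomally integrated HIV-1 vpr copy, was seeded at OD 0.01 in PMG+AL medium with 23 nL pinned compound. After 24 h at 30 °C and 99% humidity, viability was read by BacTiter-Glo luminescence.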
The depositor's hits bear a star; ? = inconclusive; [ ] = remark or other dose. Potency is the fitted concentration of half-maximal effect.

| structure | StopGo reporter | SARS PLP yeast | RE007 growth inh |
| --- | --- | --- | --- |
| CN(CC(=O)Nc1cccc(F)c1)CC(=O)NC(c1ccccc1)c1ccccc1 | -31% | -3% | 7% |
| CC1=CC(=C(C#N)C#N)C=C(C)N1CCC(C)C | -23% | 3% | -3% |
| C[C@]12c3[nH]c4ccccc4c3CCN1C(=O)C(CC(=O)NCCCn1ccnc1)C[C@@H]2C(=O)N1CCOCC1 (stereo partly drawn) | -20% | 3% | -14% |
| COc1ccccc1NS(=O)(=O)c1cccc(NC(=O)C2CC2)c1 | 6% | -1% | -17% |
| CC(OC(=O)/C=C/c1ccccc1)C(=O)Nc1ccc(C(N)=O)cc1 (stereo not drawn) | -12% | -3% | 4% |
| O=Cc1c[nH]c2ccc(OCc3ccccc3)cc12 | 0% | 3% | 3% |
| Cc1nn(Cc2ccc(F)cc2)c(C)c1NC(=O)CCCn1nc([N+](=O)[O-])cc1C | -4% | 2% | 15% |
| C[C@H](CO)N1C[C@H](C)[C@@H](CN(C)C(=O)Nc2ccc3c(c2)OCO3)Oc2c(NC(=O)Cc3ccccc3)cccc2C1=O | 22% | 1% | -2% |
| O=C(COC(=O)CSc1ccc(F)cc1)NC1CCCCCC1 | -18% | -8% | 2% |
| Cc1ccc(C)c(NC(=O)[C@@H]2CCCN2S(=O)(=O)c2ccccc2F)c1 | -25% | 3% | 1% |
| COc1ccc(C(=O)NCC(=O)N2CCCCC2)cc1OC | -18% | -1% | 5% |
| Fc1cccc(Cl)c1-c1nnc2ccc3ccccc3n12 | -8% | -2% | -8% |
| COc1ccc(S(=O)(=O)N2CCN(C(=O)CCc3c[nH]c4ccccc34)CC2)cc1 | -9% | 1% | 3% |
| C=CC[C@@H](CC(=O)N[C@H](CO)Cc1ccccc1)C(=O)N[C@@H](COC(=O)[C@H](CC=C)CC(=O)OC(C)(C)C)Cc1ccccc1 | -25% | 8% | 0% |
| COc1ccc2[nH]c3c(=O)n(Cc4ccc(C(=O)NCC5CCCO5)cc4)c(=S)[nH]c3c2c1 (stereo not drawn) | -5% | 2% | 1% |
| O=C(Cn1cnc2ccccc2c1=O)NCCCN1CCCC1=O | 17% | 1% | -5% |
| CSc1ncccc1C(=O)OCC(=O)NCCCc1ccccc1 | -5% | -2% | -7% |
| CCOc1ccc(C(=O)NCC(=O)N2CCCCCCC2)cc1 | 8% | -5% | -19% |
| CCCCn1nc(C(=O)NCC(c2cccs2)N2CCOCC2)c2ccccc2c1=O (stereo not drawn) | 32µM* | -2% | 4% |
| NC[C@H](Cc1ccccc1)NCCCCC1CCCCC1 | -16% | 2% | -8% |
| O=C(c1ccccc1)n1c(=O)cc[nH]c1=O | -1% | -3% | 14% |
| Cc1nn(-c2ccc(F)cc2)c(C)c1/C=C/C(=O)N1CCNC(=O)C1 | -6% | 6% | 3% |
| O=C(COC(=O)c1ccc(O)cc1)Nc1ccc(S(=O)(=O)N2CCCC2)cc1 | -21% | 0% | 10% |
| C[C@H](CO)N1C[C@H](C)[C@@H](CN(C)C(=O)NC2CCCCC2)Oc2c(NC(=O)c3ccncc3)cccc2C1=O | 29% | 1% | -8% |
| O=C(/C=C/Nc1ccc(Br)cn1)c1cccc(OC(F)F)c1 | 56%[activator] | -3% | -4% |

Brought forward from above: two compounds, then new ones.
| structure | StopGo reporter | SARS PLP yeast | RE007 growth inh |
| --- | --- | --- | --- |
| C[C@H](CO)N1C[C@H](C)[C@@H](CN(C)C(=O)NC2CCCCC2)Oc2c(NC(=O)c3ccncc3)cccc2C1=O | 29% | 1% | -8% |
| O=C(/C=C/Nc1ccc(Br)cn1)c1cccc(OC(F)F)c1 | 56%[activator] | -3% | -4% |
| Cc1cc(C)c(NC(=O)COC(=O)c2c(C)noc2C)c(Cl)c1 | -8% | -6% | -11% |
| Cc1nc(C)c(C(=O)OCC(=O)NCCc2ccc(S(N)(=O)=O)cc2)s1 | -10% | -3% | -5% |
| CC1=Nc2cccc([N+](=O)[O-])c2NC(=O)C1 | -5% | -5% | -2% |
| O=C(N/C(=C/c1ccccc1Cl)C(=O)N1CCOCC1)c1ccccc1 | -9% | -2% | 6% |
| COC(=O)c1cc(Oc2ccc(S(=O)(=O)N3CCOCC3)cc2[N+](=O)[O-])cc(C(=O)OC)c1 | -12% | -3% | -4% |
| CCOc1ccc(-n2c(=O)c3sccc3n(CC(=O)Nc3cccc(OC)c3)c2=O)cc1 | -3% | -1% | 6% |
| C[C@H](CO)N1C[C@H](C)[C@@H](CN(C)S(=O)(=O)c2ccccc2)Oc2ccc(NS(=O)(=O)c3cn(C)cn3)cc2C1=O | -11% | -10% | -25% |
| O=[N+]([O-])c1ccccc1S(=O)(=O)Nc1ccc(S(=O)(=O)N2CCCC2)cc1 | 12% | 0% | 4% |
| O=C(Nc1cc(S(=O)(=O)N2CCOCC2)ccc1N1CCOCC1)c1ccccc1[N+](=O)[O-] | 2% | 1% | 6% |
| CCC1CCCCN1CCCNC(=O)c1cc2c(=O)[nH]c3ccccc3c2n1C (stereo not drawn) | -5% | 6% | -14% |
| CN(Cc1ccccc1)C(=O)c1[nH]cnc1C(=O)NCc1ccccc1 | -4% | -6% | -3% |
| CC[C@@H](C)[C@@H]1CN([C@@H](CN2CCC[C@H]2CN2C(N)=NC[C@H]2CC(C)C)C(C)C)C(=N)N1CCCC1CCCC1 | -5% | 5% | -13% |
| CCOC(=O)C1=CC[C@H]2c3c(c4ccccc4n3C)C(=O)C1N2C(=O)OC(C)(C)C | 21% | 4% | 1% |
| COC(=O)[C@]1(Cc2ccccc2)N[C@H](CN(C)C(=O)c2ccc(C)cc2)[C@@H]2C(=O)N(C)C(=O)[C@@H]21 | -7% | -6% | 1% |
| N#Cc1ccccc1NC(=O)COC(=O)/C=C/c1ccc(S(=O)(=O)N2CCOCC2)cc1 | -27% | 2% | 5% |
| COc1cccc(NC(=O)CN(C)C(=O)Cc2c(C)nc3ccccc3c2C)c1 | -13% | 2% | -20% |
| C/C(=N\NC(=O)c1cccnc1)c1cc2ccccc2o1 | 41%[activator] | 1% | -2% |
| CC(C)=C[C@@H]1C[C@H](C)[C@H]2CC[C@H](C)c3c(O[C@@H]4O[C@@H](C)[C@@H](O)[C@@H](O)[C@@H]4O)c(O)c(C)c1c32 | -18% | -24% | ? |
| CC(=O)Nc1cccc(C(=O)NNC(=O)c2ccccc2-n2cccc2)c1 | -3% | 1% | -6% |
| C[C@H]1CN([C@@H](C)CO)C(=O)c2cc(NC(=O)CCN3CCOCC3)ccc2O[C@H]1CN(C)C(=O)Nc1ccc(F)cc1 | -11% | 11% | 7% |
| Nn1c(SCC(=O)N2CCOCC2)nnc1-c1cccnc1 | -8% | -6% | 12% |
| CCCN(C(=O)c1ccc(-n2cncn2)c([N+](=O)[O-])c1)C1CCS(=O)(=O)C1 (stereo not drawn) | -18% | 2% | 14% |
| O=C(NCCN1CCOCC1)c1ccc(CSCc2cccc(Cl)c2)o1 | -9% | 1% | -20% |
| COc1ccc(C(=O)NCC(c2ccccc2)N2CCCC2)cc1S(=O)(=O)N1CCOCC1 (stereo not drawn) | 8% | 2% | -15% |
| Cc1ccc(C(=O)OCC(=O)Nc2ccc3c(c2)OCO3)c(O)c1 | 9% | 3% | -4% |

The final 5 entries of the section before are carried over, then new ones follow:
| structure | StopGo reporter | SARS PLP yeast | RE007 growth inh |
| --- | --- | --- | --- |
| Nn1c(SCC(=O)N2CCOCC2)nnc1-c1cccnc1 | -8% | -6% | 12% |
| CCCN(C(=O)c1ccc(-n2cncn2)c([N+](=O)[O-])c1)C1CCS(=O)(=O)C1 (stereo not drawn) | -18% | 2% | 14% |
| O=C(NCCN1CCOCC1)c1ccc(CSCc2cccc(Cl)c2)o1 | -9% | 1% | -20% |
| COc1ccc(C(=O)NCC(c2ccccc2)N2CCCC2)cc1S(=O)(=O)N1CCOCC1 (stereo not drawn) | 8% | 2% | -15% |
| Cc1ccc(C(=O)OCC(=O)Nc2ccc3c(c2)OCO3)c(O)c1 | 9% | 3% | -4% |
| O=C(COc1cccc(Cl)c1Cl)NC1CC1 | 3% | -1% | -15% |
| C[C@H](CO)N1C[C@H](C)[C@@H](CN(C)S(=O)(=O)c2cccs2)Oc2c(NC(=O)Nc3ccc4c(c3)OCO4)cccc2C1=O | 3% | 8% | -20% |
| O=C(NN=Cc1ccc(N2CCOCC2)cc1)c1cc2ccccc2cc1O | -12% | 14% | 5% |
| Cc1ccc(NC(=O)CN(C)S(=O)(=O)c2ccc(Cl)s2)c(O)c1 | 61%[activator] | -4% | -12% |
| CN(c1ccccc1)S(=O)(=O)c1ccc(C(=O)NNC(=O)c2ccccc2F)cc1 | -3% | -14% | -19% |
| C#CCOCCOCCOCCNc1nc(N2CCN(C(=O)Cn3cc(CCCN=C(N)N)nn3)CC2)nc(N2CCN(C(=O)[C@H]([C@@H](C)O)n3cc(CCCCN)nn3)CC2)n1 | -11% | -8% | 3% |
| C[C@H](CO)N1C[C@H](C)[C@@H](CN(C)C(=O)Nc2ccccc2)Oc2c(NC(=O)c3ccncc3)cccc2C1=O | 75%[activator] | -4% | -8% |
| CC(=O)c1c(C)[nH]c(C(=O)CN2CCN(S(=O)(=O)c3ccccc3)CC2)c1C | ? | 3% | -17% |
| O=C(CNCc1ccc(Cl)cc1)Nc1ccc2c(c1)OCCO2 | 0% | -4% | 1% |
| COc1ccc(S(=O)(=O)N2CCC(C(=O)NN3CCCCC3)CC2)cc1OC | -5% | 1% | -1% |
| C#CCOCCOCCOCCNc1nc(N2CCN(C(=O)CCCCCCCCCCNC(=O)[C@H](CCCCN)n3cc(CCO)nn3)CC2)nc(N2CCN(C(=O)CCCCCCCCCCNC(=O)[C@@H]([C@H](C)O)n3cc(C)nn3)CC2)n1 | -5% | -8% | -13% |
| CCC1(CC)NC(=O)N(CC(=O)OCC(=O)Nc2ccc(OC(F)(F)F)cc2)C1=O | -12% | 5% | -5% |
| CN1CCN(C(=O)/C(=C/c2ccc(F)cc2)c2ccsc2)CC1 | -15% | 2% | 15% |
| O=C(CCC(=O)c1cccs1)OCc1ccc([N+](=O)[O-])cc1 | -8% | -1% | -15% |
| COc1ccc([C@@H]2CC=C(C(=O)O)[C@H](c3cccc(Cl)c3)N2S(=O)(=O)c2ccc(Cl)cc2)cc1 | -5% | 5% | -4% |
| O=C(Nc1ccc(Cl)cc1)c1nc[nH]c1C(=O)N1CCc2ccccc2C1 | -9% | -7% | 1% |
| O=C1C=C(c2ccc(F)nc2)C[C@@H](c2ccc3c(c2)OCO3)C1 | -18% | -2% | 9% |
| CCCN(C(=O)COC(=O)CCOc1ccccc1)c1c(N)n(Cc2ccccc2)c(=O)[nH]c1=O | -1% | -7% | -9% |
| O=C(CSc1nnc(-c2cccs2)n1C1CC1)NCC1CCCO1 (stereo not drawn) | -14% | 12% | 3% |
| Cn1c(SCC(=O)NN2C(=O)NC(C)(c3ccccc3)C2=O)nnc1-c1ccncc1 (stereo not drawn) | -15% | 1% | 6% |
| C#CCOCCOCCOCCNc1nc(N2CCN(C(=O)[C@H](CCCCN)n3cc(CN)nn3)CC2)nc(N2CCN(C(=O)[C@H](CO)n3cc([C@@H](N)C(C)C)nn3)CC2)n1 | 0% | -1% | -5% |
| O=C1c2ccccc2/C(=C\C#Cc2ccccn2)N1c1ccccc1 | 22% | 3% | -22% |
| COc1cc(S(=O)(=O)Nc2ccccc2N2CCCCC2)ccc1NC(C)=O | 51%[activator] | 1% | -11% |
| O=C(COc1ccc(Cl)cc1Br)OCC(=O)c1ccc[nH]1 | 5% | -3% | -1% |
| c1ccc(C[C@H]2CN=C(Nc3ccccc3)N2CC2CCC2)cc1 | -21% | -12% | -9% |
| CC(C)(C)OC(=O)N1CCC(NC(=O)c2[nH]cnc2C(=O)Nc2ccccc2)CC1 | -22% | 0% | 0% |
| CC1(NC(=O)CCc2ccccc2)CCN(CCCc2ccccc2)C1=O (stereo not drawn) | 30% | 4% | 5% |
| COc1ccc(S(=O)(=O)N2CCOCC2)cc1C(=O)N(C)CCOc1ccc(Cl)cc1 | -28% | -1% | 4% |
| COc1ccc(CNC(=O)COC(=O)c2ccccc2C(=O)c2ccccc2)cc1 | -8% | 1% | -10% |
| COc1ccc(/C=C2\Oc3ccccc3C2=O)cc1 | 0% | -9% | ? |
| COc1ccc(NC(=O)N(C)C[C@H]2Oc3ccc(NC(=O)Cc4ccccc4)cc3C(=O)N([C@H](C)CO)C[C@@H]2C)cc1 | -2% | -1% | 3% |
| COc1ccc(S(=O)(=O)Nc2ccc3c(c2)C(=O)N([C@H](C)CO)C[C@H](C)[C@@H](CN(C)S(=O)(=O)c2c(C)noc2C)O3)cc1 | -13% | -3% | 10% |
| CCOC(=O)[C@@H]1[C@H]2COc3cc(OC)ccc3[C@H]2N2C(=O)N(c3ccc(C)cc3)C(=O)[C@]12C | 19% | 9% | 5% |
| CSc1nsc(/C=C/Nc2ccc(O)cc2C)c1C#N | 24% | 0% | -18% |
| CCCN(C(=O)CSc1ncccn1)C1CCS(=O)(=O)C1 (stereo not drawn) | -15% | 5% | -3% |

An excerpt, so the mix of outcomes need not match the whole.
